Rce1 inhib: yeast Rce1p protease inhibitors, primary screen, biochemical, fluorescence, cell-free homogeneous; yeast membranes, quenched prenylated peptide cleavage fluorescence; calls only; 290,000 compounds, 0.27% hits; AID 2563, 2010;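 active means fall in fluorescence gain of 50% or more versus controls, with final raw signal at or below 3038400; inconclusive means same 50% fall but final raw signal above 3038400; inactive means fall in fluorescence gain under 50%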;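 further: plate controls were neutral control wells for no effect and wells lacking membranes for full effect; tested at 10 µM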
Target sequence (Q03530 whole entry, looked up): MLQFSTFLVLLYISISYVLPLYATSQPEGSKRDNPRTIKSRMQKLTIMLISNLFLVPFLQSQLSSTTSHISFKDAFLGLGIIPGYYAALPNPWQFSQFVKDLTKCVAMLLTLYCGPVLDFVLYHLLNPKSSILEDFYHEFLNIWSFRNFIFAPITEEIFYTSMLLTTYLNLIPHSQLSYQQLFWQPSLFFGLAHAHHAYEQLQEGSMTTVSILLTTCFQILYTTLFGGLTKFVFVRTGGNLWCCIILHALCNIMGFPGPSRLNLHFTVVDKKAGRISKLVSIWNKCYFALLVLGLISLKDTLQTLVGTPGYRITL
CSC inhib: cancer stem cell viability inhibitors, primary screen, luminescence; cancer stem cell-like cells viability; inhibition, % at 7.5 µM; 300,000 compounds, 1.1% hits;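 active means mean at 75% or more and at least half the replicates too; inconclusive means mean and replicates disagree; tested in HMLE shEcad cells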;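 further: 0% = median of negative and 100% = median of positive control wells; the first replicate is given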
eIF4H inh: human eIF4H binding inhibitors, primary screen, translation initiation inhibitor project, biochemical, uHTS, fluorescence polarization; 290,000 compounds, 0.94% hits; AID 2012, 2009; inhibition, % at 35 µM; eIF4H fluorescence polarization binding assay; Eukaryotic translation initiation factor 4H (Homo sapiens), Q15056;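 active means 50% or more with normal probe brightness, or confirmed in later tests; inconclusive means above 50% with abnormal brightness, or retests that disagree; inactive means below 50% or failed in later tests; about a fifth of its hits are not listed in these tables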;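 further: calls also rest on retests at 20 µM and on dose response follow-up; 0% = protein and probe with vehicle and 100% = probe without protein; strong numbers were not always called active; many hits fall short of the cut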
PABP FP inh: PABP poly(A) RNA binding inhibitors, primary screen, biochemical, fluorescence polarization, uHTS; Polyadenylate-binding protein 1 (Homo sapiens), P11940; inhibition, % at 35 µM; 290,000 compounds, 1% hits; AID 2014, 2009;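 active means 50% or more with normal probe brightness, or confirmed in later tests; inconclusive means above 50% with abnormal brightness, or retests that disagree; inactive means below 50% or failed in later tests; about a fifth of its hits are not listed in these tables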;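 further: calls also rest on retests at 20 µM and on dose response follow-up; controls were probe without protein and protein plus probe with vehicle; some compounds called inactive have numbers as strong as hits; many hits fall short of the cut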
Target sequence (P11940 whole entry, looked up): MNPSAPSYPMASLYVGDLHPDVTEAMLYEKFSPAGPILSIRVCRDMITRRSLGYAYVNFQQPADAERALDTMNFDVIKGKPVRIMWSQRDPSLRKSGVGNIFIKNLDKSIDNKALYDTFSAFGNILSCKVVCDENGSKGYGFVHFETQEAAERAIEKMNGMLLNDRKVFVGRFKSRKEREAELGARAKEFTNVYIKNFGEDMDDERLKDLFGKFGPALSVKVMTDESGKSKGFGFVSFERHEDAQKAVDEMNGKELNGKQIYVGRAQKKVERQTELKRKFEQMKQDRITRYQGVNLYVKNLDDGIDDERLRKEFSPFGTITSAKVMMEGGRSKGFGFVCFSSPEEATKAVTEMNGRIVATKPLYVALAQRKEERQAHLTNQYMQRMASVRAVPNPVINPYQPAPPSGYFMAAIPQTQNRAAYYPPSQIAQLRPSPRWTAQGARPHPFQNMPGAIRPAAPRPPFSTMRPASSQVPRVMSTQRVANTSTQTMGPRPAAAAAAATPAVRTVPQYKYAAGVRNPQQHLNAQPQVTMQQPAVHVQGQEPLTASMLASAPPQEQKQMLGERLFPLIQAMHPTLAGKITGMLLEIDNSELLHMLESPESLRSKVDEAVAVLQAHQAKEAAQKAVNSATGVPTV
Yeast UUG start: modulators of yeast start codon fidelity, primary screen, whole organism, S. cerevisiae, single point, plate reader; AID 602363, 2012; 350,000 compounds, 0.13% hits; S. cerevisiae UUG-firefly luciferase reporter, luminescence/redox ratio; activity score, % at 18.7 µM;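 active means replicate mean at a twofold rise or more, about +100% in these data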;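 further: firefly luciferase made from a UUG start codon reports start codon fidelity; reporter light over untreated wells divided by growth signal over untreated wells; some hits fall short of that in this replicate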
MT1-MMP act inh: blockers of MT1-MMP proenzyme processing, primary screen, HT1080 RFP-PRO-GFP cells, GFP/RFP fluorescence. Matrix metalloproteinase-14 (Homo sapiens), P50281. GFP/RFP ratio fluorescence, overnight; percent of plate control window, DMSO zero. GFP/RFP ratio change, % at 20 µM. 360,000 compounds, 0.061% hits;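 active means GFP/RFP ratio change of at least 30% with cell ATP level not reduced by more than half and red fluorescence within 50% of control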; further: strong numbers were not always called active
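Assay system: HT1080 cells carrying an RFP-PRO-GFP reporter | Dosing: Single dose of 20 µM compound, 1% DMSO final | Incubation: Cells overnight before dosing, compound overnight, 37 °C, 5% CO2 | Evaluation: GFP/RFP fluorescence ratio | Control set: DMSO and RFP-L50D-GFP cell wells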
HIV Env fusion: inhibitors of HIV-1 Env-driven cell-cell fusion, primary screen, HeLa-JRFL effector, CEM21 target cells, luciferase. inhibition, % at 12.3 µM. 360,000 compounds, 1.1% hits. AID 651610, 2012;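 active means mean replicate inhibition score of at least 50 and every replicate individually at or above 50; inconclusive means only one of the two criteria met; inactive means mean below 50 and not all replicates reaching 50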;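 further: 0% = plate neutral controls and 100% = maraviroc near 300 nM; one replicate is shown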
eIF4H inh retest: also measured in eIF4H inh; calls as there; inhibition, %; compound at 20 µM; confirmation average;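 mean of two retest wells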
PABP FP inh retest: recorded beside PABP FP inh, whose call it bears; inhibition, %; compound at 20 µM; confirmation repeats;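 mean of two retest wells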
MT1-MMP act inh RFP: further read-out of MT1-MMP act inh, marked with its call; RFP signal change, %; measured here: RFP expression control read;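 0 = vehicle wells; hits needed this value within 50% of zero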
Starred values were filed as active, the others as inactive; i = inactive; u = inconclusive; x = not tested or not shown.

SMILES	Rce1 inhib	CSC inhib	eIF4H inh	PABP FP inh	Yeast UUG start	MT1-MMP act inh	MT1-MMP act inh RFP	HIV Env fusion	others
COc1ccccc1NC(=O)COc1ccc2c(c1)OCO2	i	-5.0	-5.7	-9.3	-6.6	-1.2	-2.4	-23.6
CCCCn1c(N)c(N(CCOC)C(=O)c2nn(CC)c(=O)c3ccccc23)c(=O)[nH]c1=O	i	2.9	x	x	-2.3	12.4	5.0	7.6
CCn1cc(/C=N\NC(=O)Cc2ccc(Cl)cc2)cn1	i	1.1	-6.2	-2.0	x	0.4	1.5	-8.8
O=C(NCCO)Nc1ccc(Cl)cc1	i	-15.3	0.6	-1.3	x	2.5	1.9	-40.5
Cc1ccc(S(=O)(=O)NNC(=O)c2csnn2)cc1	i	1.4	1.5	1.4	x	0.4	0.8	-0.6
O=C(O)Cc1ccc2ccc3ccccc3c2c1	i	18.8	x	x	-5.3	-1.1	3.3	10.5
Cc1noc(C)c1COc1cccc(C(=O)Nc2ccc3c(c2)OCO3)c1	i	-11.8	-7.8	-4.2	-9.5	2.2	-0.9	-45.1
Nc1c(N(CCO)C(=O)/C=C/c2ccco2)c(=O)[nH]c(=O)n1Cc1ccccc1	i	6.8	12.7	-3.3	x	-8.6	1.6	4.3
COc1ccc(NC(=O)c2cccc(N3C(=O)C4C5C=CC(C6CC56)C4C3=O)c2)c(OC)c1 (stereo not given)	i	-6.9	-3.9	10.9	5.9	5.4	-4.7	2.8
O=c1cc(CN2CCN(C/C=C/c3ccccc3)CC2)c2cc(O)c(-c3ccccc3)cc2o1	i	13.4	-6.1	-3.5	-8.5	-8.8	-11.3	x
COc1cc(/C=C/c2cc(OC(C)=O)c3ccccc3n2)c(OC(C)=O)c([N+](=O)[O-])c1	i	0.4	25.8	31.8	-6.4	36.9*	0.0*	-25.5
COc1cc(C(=O)c2ccccc2Cl)c([N+](=O)[O-])cc1OC	i	-5.2	-7.4	4.1	-18.4	3.4	2.6	7.8
CCCCCCCCCC1(CC(=O)OCC)SCCN1C(N)=O (stereo not given)	x	x	x	x	-7.1	3.8	-19.9	8.1
Cn1ncc([N+](=O)[O-])c1C(=O)NC1CCCCC1	i	-13.9	-7.8	-5.4	-17.1	-0.4	4.2	1.4
O=C1CCCC(=O)C1CS(=O)(=O)c1ccccc1	i	-4.1	-7.6	7.4	x	2.8	1.0	14.1
O=C(COc1ccccc1)Nc1ncc2c(n1)CCCC2=O	i	-11.4	0.4	7.3	18.2	3.8	5.8	x
COc1ccc(Nc2nc3c(C)cccc3cc2C#N)c(OC)c1	i	7.2	6.1	-10.0	x	2.8	6.4	-7.5
CSc1ccc(OC2CCN(Cc3ccccc3)CC2)cc1	i	37.3	1.8	-2.7	x	10.4	5.2	x
COc1ccc(C(CC(=O)O)NC(=O)c2ccco2)cc1OC (stereo not given)	i	-4.2	8.4	-7.7	-23.4	1.7	3.0	x
Cc1cccc(-n2cnc(C(=O)NNC(=S)Nc3ccc(Cl)cc3)c2)n1	i	-6.7	5.2	-12.9	x	-15.3	-8.0	51.7
O=C(Nc1c(C(=O)Nc2ccc3c(c2)OCCO3)cnn1-c1ccccc1Cl)c1ccco1	i	-21.4	2.5	-0.6	-0.5	-1.0	3.2	-75.1
COc1cccc(C(=O)Nc2nnc(C(C)C)s2)c1	i	-3.1	-4.9	14.4	-47.6	4.5	3.2	x
CC(C)c1ccc(C(=O)N2CCN(c3cnn(C)c(=O)c3Cl)CC2)cc1	i	-2.6	-5.0	10.4	x	-3.1	-4.8	-5.4
CC1CCCC(C)N1C(=O)COC(=O)Cc1c[nH]c2ccccc12 (stereo not given)	i	1.0	x	x	-7.4	-1.2	2.4	x
CC1CN(C2CCN(C(=O)c3ccccc3)CC2)CC(C)O1 (stereo not given)	i	8.8	-5.9	0.3	-17.9	-1.6	5.6	-69.1
CN1N=C2c3ccccc3CCCC2C1c1ccc(F)cc1 (stereo not given)	i	-3.5	-3.9	-1.4	x	2.5	-11.2	-20.6
O=C(NNC(=O)C1CCCO1)c1ccccc1Cl (stereo not given)	i	-9.4	7.7	-2.9	-7.8	2.1	0.6	x
Cc1c(C(=O)O)nnn1-c1ccccc1	i	0.8	-6.8	6.7	-16.7	10.8	2.9	x
CC(C)C(=O)N1N=C2CCCCC2C1(O)C(F)(F)F (stereo not given)	i	2.5	-12.7	9.3	x	-0.9	2.5	17.8
COC(=O)c1cnn(-c2nc(OC)cc(OC)n2)c1C	i	-4.9	-6.8	9.4	x	1.3	4.9	-34.7
CCN(C[C@H]1N[C@@](C)(C(=O)OC)[C@H]2C(=O)N(C)C(=O)[C@@H]12)C(=O)c1ccc(C(C)(C)C)cc1	x	x	x	x	12.2	3.5	9.5	-6.8
Cc1cccc(C)c1NC(=O)CN(C)C(=O)c1cccc(S(=O)(=O)N2CCN(c3ccc(F)cc3)CC2)c1	i	4.6	x	x	4.1	4.1	-28.1	-1.1
O=C(c1ccco1)N1CCN(C(=O)c2ccccc2NS(=O)(=O)c2ccc(F)cc2)CC1	i	-7.0	5.4	11.9	-11.4	-1.6	0.2	-50.4
Cc1ccc(C(=O)N(Cc2cccnc2)Cc2cc3cc(C)ccc3n3nnnc23)cc1	i	x	1.0	2.7	-7.0	-2.2	-1.7	4.2
c1ccc(-c2nc(SCc3nc4ccccc4[nH]3)c3oc4ccccc4c3n2)cc1	x	x	x	x	-21.0	20.4	-21.7	12.2
Cc1c(C(N)=O)sc2ncn(CC(=O)N3CCC(C)CC3)c(=O)c12	i	x	2.1	5.0	-0.8	5.2	2.8	20.0
Cn1c(=O)c2cc(NCc3ccccc3)nnc2n(C)c1=O	i	-9.1	-3.5	12.8	-21.2	17.5	19.1	x
CC1CCC(C(C)C)C(OC(=O)Cn2c(-c3ccc(Cl)cc3)[n+](C)c3ccccc32)C1 (stereo not given)	i	60.8	-15.5	3.4	12.2	-14.2	-27.1	68.5*
Cc1noc(NS(=O)(=O)c2ccc(NC(=O)CCn3c(=O)oc4ccccc43)cc2)c1C	i	-3.8	-3.9	-0.9	-19.5	2.7	7.5	x
Cc1ccc(NC(=O)CN(c2ccc(Cl)cc2)S(=O)(=O)c2cc([N+](=O)[O-])ccc2Cl)c(C)c1	i	44.9	-7.5	-12.6	x	-6.6	-13.4	21.2
COc1ccc(C(=O)NNC(=O)C(=O)NC(C)c2ccccc2)cc1OC (stereo not given)	i	12.4	8.7	-3.7	x	0.9	6.5	2.5
N#Cc1sc(NCc2cccc(Cl)c2)nc1Cl	i	22.1	4.2	3.1	-0.6	1.6	-1.3	-1.9
COc1ccccc1N1CCN(C(=O)c2noc(C(C)C)c2[N+](=O)[O-])CC1	i	-4.6	2.6	-3.0	8.8	-5.6	-1.5	x
Cc1ccccc1N1CCN(C(=O)c2ccccc2NC(=O)C2CC=CCC2C(=O)O)CC1 (stereo not given)	i	10.3	-5.3	-4.8	-2.6	0.6	5.8	x
CC(NC(=O)c1ccc(Br)cc1)c1ccccc1 (stereo not given)	i	-7.4	-3.8	-5.4	-6.0	-0.4	5.9	-6.8
COc1ccc(CNC(=O)Cn2nc(C(F)(F)F)c(Br)c2C)cc1	x	-12.5	-1.5	-8.4	-3.8	0.5	5.5	0.5
CCOc1ccc(Cc2nnc(SCC(=O)c3ccc(OC)cc3)o2)cc1	i	1.4	5.9	-2.1	-14.9	2.6	-6.8	x
C=C(C)C(=O)Nc1cccnc1Oc1ccc(F)cc1F	i	-1.4	0.2	-2.6	x	-3.4	1.9	-12.3
Cc1ccc(N(C)S(=O)(=O)c2cccc(C(=O)Nc3nc4ccccc4[nH]3)c2)cc1	i	u	22.3	8.2	x	-17.6	-30.6	x
O=C(CN1CCCCC1)Nc1ccc(NC(=O)c2ccc(Cl)cc2)cc1Cl	i	39.0	-5.0	-17.1	-12.0	-0.7	-4.8	-77.6
COc1ccc(NC(=O)COC(=O)CNC(=O)C2CCCCC2)cc1OC	x	4.6	x	x	-8.4	-0.5	3.1	-0.9
Cc1ccc(S(=O)(=O)N2CCCCC2)cc1NC(=O)COC(=O)c1c(F)cccc1F	i	-4.3	3.3	5.9	x	1.0	3.2	8.3
O=C(CCc1nnc(-c2ccc3c(c2)OCO3)o1)NC(c1ccccn1)C(F)(F)F (stereo not given)	i	-7.3	6.2	13.3	x	-0.3	-4.1	11.7
O=C(NCCc1ccccc1)c1cccc2c(-c3ccc(F)c(F)c3)coc12	x	x	x	x	-20.1	-4.0	-0.5	-24.7
CCOC(=O)c1cc(-c2ccccc2)n(CC(=O)O)c1C	x	3.1	-2.1	0.0	-14.4	-3.5	-1.0	x
COc1cc(CCC(=O)OCC(=O)Nc2ccc(C(N)=O)cc2)cc(OC)c1OC	i	-10.0	-6.0	-12.1	x	2.8	6.2	7.8
COc1cc(OC)cc(C(=O)n2nc(C)cc2C)c1	i	-2.9	-8.2	-1.2	-9.9	0.5	2.5	x
O=C(CN1CCN(S(=O)(=O)c2ccc(F)cc2)CC1)Nc1ccc2c(c1)OCO2	i	-2.9	3.0	-4.1	-0.1	-5.1	-0.9	x
CCCc1cc(=O)oc2cc(OCC(=O)Nc3ccc(S(N)(=O)=O)cc3)ccc12	i	-12.8	71.4	7.7	-11.3	4.6	3.9	8.1	eIF4H inh retest=39.7;PABP FP inh retest=13.2
COc1cc2c(cc1NC(=O)CSc1ccc(Cl)cc1)oc1ccccc12	i	-9.2	-8.7	-7.4	-22.1	1.5	-6.8	1.6

(next part)
SMILES	Rce1 inhib	CSC inhib	eIF4H inh	PABP FP inh	Yeast UUG start	MT1-MMP act inh	MT1-MMP act inh RFP	HIV Env fusion	others
Cc1cc(F)ccc1N1CCC(N2CCN(C(C)C)C(CCO)C2)CC1 (stereo not given)	i	51.6	-3.3	-13.4	x	0.1	-3.1	4.5
CCc1cccc(NS(=O)(=O)c2ccc3c(c2)NC(=O)C(C)S3)c1 (stereo not given)	i	12.1	-11.2	12.8	4.3	-10.2	-12.8	8.1
CCN(CC)S(=O)(=O)c1ccc(N2CCOCC2)c(C(=O)O)c1	i	-12.7	1.9	-2.4	-7.4	1.0	3.7	-49.0
Cc1c(Cl)cccc1NC(=O)C1CCN(c2cnccn2)CC1	i	x	2.0	2.0	x	0.4	2.9	-4.0
CCC(=O)NC(=S)Nc1c(C)cc(Br)cc1C	i	-3.3	-5.7	13.5	x	1.2	-0.3	-7.4
COc1ccccc1N(CC(=O)NC1CCCC1)S(=O)(=O)c1cccc(C(F)(F)F)c1	x	x	x	x	-1.6	-2.9	-0.5	19.8
CCCCCCCCC1CC(C(=O)Nc2ccccc2)C(=O)O1 (stereo not given)	i	17.9	x	x	x	-0.8	4.3	-1.2
CCc1ccc(NC(=O)C(=O)NCCOc2ccccc2Cl)cc1	i	0.9	-9.7	1.1	-8.4	1.0	1.0	-8.1

High-throughput results deposited in PubChem by several laboratories.
